From PubChem
BJeLR lethal: MLPCN primary cell-based screen for lethality selective to Ras in HRASV12 cells | 300,000 tested, 0.17% active | inhibition, % (test concentration not listed) | BJeLR (HRASV12) viability, CellTiter-Glo ATP luminescence, 48 h; reference of the scale not given here;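 active = replicate mean above 50%; inconclusive = above 50% but judged a plate artefact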;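 also: 50 nL library stock added to about 25 µL; numbers are from one replicate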
Sa ugtP lethal: growth inhibition of ugtP-null S. aureus, primary screen, RN4220 ugtP deletion, OD600; AID 1259309, 2017; growth inhibition, % (no concentration beside the values); 330,000 tested, 0.54% active; 16 h; some inactives read as strong as hits;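 active = z-score under -3 and OD600 up to 0.15 on both plates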;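 also: plate controls were untreated wells for no effect and antibiotic for full effect; wells of about 80 µL received 100 nL stock; the first replicate is given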
Bead autofluor: flagged as autofluorescent in microsphere protease counterscreen; compound autofluorescence counterscreen, microsphere flow cytometry; active compounds read high; fluorescence intensity (test concentration not listed); 360,000 tested, 3.1% active; AID 624483;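 active = at least 3 SD above the mean of all compounds, about 16000 in these data; inconclusive = too few beads counted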;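 also: 100 nL of 1 mM stock went into each well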
RN4220 kill: growth inhibition of S. aureus RN4220, primary screen, OD600. 16 h. inhibition, % (test concentration not listed). 330,000 tested, 0.33% active;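 active = z-score of -3 or lower and OD600 up to 0.18 on both plates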;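 also: plate controls were untreated cells for no effect and reference antibiotic for full effect; stock transfer was 100 nL into about 80 µL; one replicate is shown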
PrP UTR inh: inhibition of PrP 5' UTR reporter expression. 340,000 tested, 0.35% active. inhibition, % (no concentration beside the values). cell-based PrP 5' UTR mRNA reporter, plate reader;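 active = every replicate at 50% or more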;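 also: 0 = median of the neutral control wells; tested in H4 reporter cells; numbers are from one replicate; inactives centre near -14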
Mtb hypoxia inh: PubChem AID 1159583; M. tuberculosis hypoxia-regulated fluorescent reporter, fluorescence; fluorescence inhibition, % (concentration not given with the values); 300,000 tested, 0.1% active;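 active = 35 to 45% if threefold the growth effect, above 45% if 1.5-fold the growth effect; inactive = the rest, general growth blockers included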;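 also: wells of about 50 µL received 100 nL stock; 0% = vehicle wells and 100% = reference inhibitor wells; whole bacteria with a GFP reporter of the hypoxia response; strong numbers were not always called active; many hits fall short of the cut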
Mtb hypoxia inh growth: also measured in Mtb hypoxia inh; calls as there; growth inhibition, %; measured here: M. tuberculosis growth (absorbance);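 0% = vehicle and 100% = reference antibiotic; read after six days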
The depositor's hits bear a star; ? = inconclusive; . = not tested or not shown; & = joins results of further samples.

SMILES	BJeLR lethal	Sa ugtP lethal	Bead autofluor	RN4220 kill	PrP UTR inh	Mtb hypoxia inh	Mtb hypoxia inh growth
CCOC(=O)CNC(=O)CSc1nnc(NC(=O)c2ccc(C)cc2)s1	1	-2	3318	-3.3	29	-5	-4
Cc1ccc(NC(=O)COC(=O)CCC2CCCC2)cc1S(=O)(=O)N1CCOCC1	.	3	4465	6.9	0	15	6
COc1cccc(NC(=O)CN(C)C(=O)c2cc(-c3ccccc3)nc3ccccc23)c1	0	2	4801	1.4	-6	0	-6
CC(C)Oc1cccc(C(=O)C2CCCN(C(=O)c3ccc4c(c3)OCO4)C2)c1 (centres undefined)	-2	14	5857	-0.4	-26	10	7
Clc1cccc(CN2CCN(c3nc4nonc4nc3NC3CC3)CC2)c1	-3	4	2717	3.1	-17	7	3
COC(=O)C(NC(=O)c1ccco1)(Nc1cc(C)ccn1)C(F)(F)F (centres undefined)	0	-8	3428	12	-10	-75	-9
C=CCOc1ccc(C(=O)N(Cc2ccc(N(C)C)cc2)C2CCS(=O)(=O)C2)cc1 (centres undefined)	-13	1	4347	-2.4	-3	-4	-1
CCC(=O)Nc1ccc(C(=O)NN=Cc2cccnc2)cc1	.	1	.	1.3	.	5	1
Cc1cccc(C(=O)NCC(=O)N2CCCCCCC2)c1	.	-2	2967	-2.3	-37	2	-1
CCOc1ccc2nc(NS(=O)(=O)c3cccs3)sc2c1	5	11	4028	1.5	-42	14	4
CCN(CC)S(=O)(=O)c1ccc(C(=O)Nc2nnc(NC(=S)Nc3ccccc3)s2)cc1	-11	3	4474	9.3	-23	4	12
CC(C)(C)c1cc[n+](-c2[nH]c(=O)sc2/C=N/NC(=O)c2ccccc2[O-])cc1	2	.	3724	.	-6	.	.
COc1cc(/C=N/n2c(-c3cc(C)[nH]n3)n[nH]c2=S)ccc1O	1	.	4188	.	-38	.	.
CCn1c(CCC(=O)O)nc2cc(S(=O)(=O)N3CCOCC3)ccc21	.	-2	3825	4.7	-10	18	8
COc1ccccc1CNc1ncnc2sccc12	13	0	4085	2.7	-14	5	-2
CN(CC(=O)Nc1cc(S(=O)(=O)N2CCCC2)ccc1Cl)Cc1nc2ccccc2c(=O)[nH]1	.	-1	3971	1.3	-23	0	0
c1ccc(CCNc2ccccn2)nc1	.	-2	2975	2.1	3	15	3
Cc1cc(C)c(S(=O)(=O)NCc2cn3c(C)csc3n2)c(C)c1	-12	-5	3041	5.6	-6	9	0
CCOC(=O)c1cc(-c2ccccc2)sc1NC(=O)C(C)N1C(=O)c2ccccc2C1=O (centres undefined)	-2	6	2329	5.0	-15	-1	0
Cc1ccc(OCCN2C(=O)CSC2=O)cc1	2	-1	8787	-0.1	-22	16	10

13 compounds out of the list, sorted by molecular weight, low to high.
SMILES	BJeLR lethal	Sa ugtP lethal	Bead autofluor	RN4220 kill	PrP UTR inh	Mtb hypoxia inh	Mtb hypoxia inh growth
c1ccc(CCNc2ccccn2)nc1	.	-2	2975	2.1	3	15	3
Cc1ccc(OCCN2C(=O)CSC2=O)cc1	2	-1	8787	-0.1	-22	16	10
COc1ccccc1CNc1ncnc2sccc12	13	0	4085	2.7	-14	5	-2
Cc1cccc(C(=O)NCC(=O)N2CCCCCCC2)c1	.	-2	2967	-2.3	-37	2	-1
COc1cc(/C=N/n2c(-c3cc(C)[nH]n3)n[nH]c2=S)ccc1O	1	.	4188	.	-38	.	.
CCOc1ccc2nc(NS(=O)(=O)c3cccs3)sc2c1	5	11	4028	1.5	-42	14	4
COC(=O)C(NC(=O)c1ccco1)(Nc1cc(C)ccn1)C(F)(F)F (centres undefined)	0	-8	3428	12	-10	-75	-9
Clc1cccc(CN2CCN(c3nc4nonc4nc3NC3CC3)CC2)c1	-3	4	2717	3.1	-17	7	3
CCOC(=O)CNC(=O)CSc1nnc(NC(=O)c2ccc(C)cc2)s1	1	-2	3318	-3.3	29	-5	-4
CC(C)Oc1cccc(C(=O)C2CCCN(C(=O)c3ccc4c(c3)OCO4)C2)c1 (centres undefined)	-2	14	5857	-0.4	-26	10	7
CC(C)(C)c1cc[n+](-c2[nH]c(=O)sc2/C=N/NC(=O)c2ccccc2[O-])cc1	2	.	3724	.	-6	.	.
COc1cccc(NC(=O)CN(C)C(=O)c2cc(-c3ccccc3)nc3ccccc23)c1	0	2	4801	1.4	-6	0	-6
C=CCOc1ccc(C(=O)N(Cc2ccc(N(C)C)cc2)C2CCS(=O)(=O)C2)cc1 (centres undefined)	-13	1	4347	-2.4	-3	-4	-1

The results go on.
SMILES	BJeLR lethal	Sa ugtP lethal	Bead autofluor	RN4220 kill	PrP UTR inh	Mtb hypoxia inh	Mtb hypoxia inh growth
Cc1nc(N2CCN(Cc3ccccc3)CC2)nc2c1C(=O)CCC2	4	.	4263	.	-16	.	.
CN(C1CCCCC1)S(=O)(=O)c1cc2c(cc1Cl)NC(=O)CO2	4	7	5749	6.1	-28	8	6
Cc1ccccc1OCCn1c(=S)[nH]c2c(N)ncnc21	-13	0	3930	6.9	4	-9	3
CC(C)(C)C1C=C(C(N)=O)OC(OCCCCO)C1 (centres undefined)	.	-3&2	.	0.3&6.7	.	-7&11	8&9
COc1ccccc1NC(=O)CN1CCN(CC(=O)Nc2ccc(C)c(F)c2)CC1	-3	5	4024	4.1	-24	-16	-8
CCN1C(=O)/C(=C/c2c(C)nn(C)c2C)SC1=S	-3	1	11015	3.2	-9	-3	-4
CSc1ncccc1C(=O)OCC(=O)NCc1ccccc1	.	6	3779	2.7	-24	-8	-1
O=C(c1cc(COc2ccc(F)cc2Cl)on1)N1CC[C@@H]2CCCC[C@H]2C1	5	0	4856	0.1	-17	11	2
COc1ccc(OC)c(CCNC(=O)CCc2nnc3ccc(N4CCOCC4)nn23)c1	-13	4	5218	0.3	0	-15	-2
CN(C)c1ccnc(Nc2ccccc2)c1C#N	-2	4	3518	2.8	-24	1	2
NC(=O)c1cc2ccccc2oc1=NNC(=O)c1ccccc1	.	6	.	7.2	.	10	8
c1ncn(C23CC4CC(CC(C4)C2)C3)n1	1	5	2410	4.7	10	2	-5
O=C(CN1CCOCC1)Nc1ccc(C2CCCCC2)cc1	5	8	11282	4.7	-45	4	4
O=[N+]([O-])c1ccc(-c2nn(-c3ccccc3)cc2C=Nn2c(-c3ccncc3)n[nH]c2=S)cc1	.	9	.	15	.	8	6
COc1ccc(CNC(=O)CSc2nc3ccc(C)cc3[nH]2)cc1OC	3	4	3879	5.7	-18	-12	8
CCN(Cc1ccccc1)C(=O)CCNS(=O)(=O)c1cc(Br)cnc1N	-5	3	4723	1.4	-7	8	0
CCOCCCNC(=S)N1CCN(c2nc(-c3ccccc3)cs2)CC1	-1	16	3834	-9.4	-16	3	-1
Cc1ccccc1C(=O)NNS(=O)(=O)c1cccc([N+](=O)[O-])c1	-10	13	3303	3.9	-15	1	5
Cc1cc2c(cc1C)[n+](C)cn2CC(O)COCc1ccccc1 (centres undefined)	6	6	22173*	1.2	-28	9	6
CCOc1ccc(NC(=O)C2CCN(S(=O)(=O)c3ccc4c(c3)CC(C)N4C(C)=O)CC2)cc1 (centres undefined)	21	2	5301	0.0	-5	9	13
CCOC(=O)C1CCN(C(=O)c2ccc3snnc3c2)CC1	21	1	3289	-7.2	-12	20	8
CN(C)CCn1c2c(c(SCC(=O)N3CCc4ccccc43)nc1=O)CCCC2	9	4	.	-6.0	-6	1	8
Brc1ccc(-c2nnc3sc(CN4CCc5ccccc5C4)cn23)cc1	.	-2	4982	5.9	-63	12	8
Cc1cc(C)c2c(n1)SCC(=O)N2CC(=O)Nc1cccc(Cl)c1	17	-9	5659	-6.9	-19	-4	-3
CCOC(=O)c1cc(C)sc1NC(=O)CN1CCN(C(=O)c2ccco2)CC1	-6	10	5302	0.5	-6	4	3
CCOC(=O)c1c(C)c2c(=O)[nH]cnc2n1-c1ccccc1	6	3	3931	0.4	10	13	2
CN(c1ccc(C(=O)N/N=C/c2cccc([N+](=O)[O-])c2)cc1)S(=O)(=O)c1ccccc1	-1	.	3867	.	-3	.	.
CCOC(=O)C(C)N1N=C(/C=C/c2ccc(OC)cc2)CCC1=O (centres undefined)	0	17	4472	1.6	-19	.	.
COc1cccc(N(C(=O)Cn2nnc(-c3ccc(C)cc3)n2)C(C(=O)NC(C)(C)C)c2c[nH]c3ccccc23)c1 (centres undefined)	5	-11	23333*	0.4	-23	3	14
COc1ccc(C(=O)C(=NNc2ccccc2)c2ccc(OC)cc2)cc1	.	28	2849	-4.2	-18	5	6
Cc1ccc(CCCNC(=O)C2CCC(=O)N(Cc3cccc(F)c3)C2)cc1 (centres undefined)	4	16	4221	-0.5	-21	6	-3
O=C(CCCn1c(=S)[nH]c2ccccc2c1=O)N1CCN(c2cccc(Cl)c2)CC1	-4	-12	9462	2.6	-15	6	2
COc1ccc(S(=O)(=O)N2CCC(C(=O)NCc3ccco3)CC2)cc1	-3	1	8906	5.0	-6	9	10
CCN(CC)S(=O)(=O)c1ccc2oc(C(=O)N3CCOCC3)c(C)c2c1	-7	3	3915	3.1	-33	-5	2
c1ccc(-c2n[nH]c3c2CCC3)cc1	-7	-7	3005	20	-22	7	3
CC(C)CN(C(=O)COC(=O)c1ccc2ccccc2n1)C1CCS(=O)(=O)C1 (centres undefined)	4	4	4073	4.8	-14	-6	1
O=S(=O)(NCCNc1nccc(C(F)(F)F)n1)c1ccccc1	-2	0	5272	2.8	-28	-4	-1
CC(=O)c1c(C)[nH]c(C(=O)NCC2CCCCC2)c1C	-1	1	5707	1.8	-22	-5	4
Clc1ccc2[nH]c3c(c2c1)CCc1cn[nH]c1-3	-1	79	2611	98*	-33	-8	-4
CC1=CC=CC2=NC(=O)CC(C)(C(=O)N(CC(=O)NC3CCCC3)c3ccc(F)cc3)N12 (centres undefined)	0	3	4038	3.2	-24	11	0
N#C/C(=C\c1ccc(-c2ccc(C(=O)O)cc2)o1)c1nc2ccccc2[nH]1	.	-10	2883	8.9	-20	-13	-6
CCOC(=O)C1=C(C)N=c2s/c(=C\c3ccncc3)c(=O)n2C1c1ccc2c(c1)OCO2 (centres undefined)	8	.	2723	.	-7	.	.
CCOc1ccccc1C(=O)NC(C(=O)Nc1cccnc1)C(C)C (centres undefined)	2	4	4356	-1.4	-45	9	8
Cc1nnc(NC(=O)CSc2nc3[nH]ncc3c(=O)[nH]2)s1	-17	12	1968	8.6	-11	16	11
Cn1cc(C(=O)Nc2ccc(Cl)cc2)c(C(F)(F)F)n1	3	-8	2188	0.7	-20	10	4
C=CCN(c1ccccc1)S(=O)(=O)c1ccc2c(c1)NC(=O)C(C)S2 (centres undefined)	3	5	5739	9.1	-13	6	-4
COc1ccc(S(N)(=O)=O)cc1C(=O)OCCCOC(=O)c1cc(S(N)(=O)=O)ccc1OC	1	0	5485	3.5	-2	6	-2
Cc1cc(=O)oc2cc(OCC(=O)N3CCC(C(=O)O)(c4ccccc4)CC3)ccc12	7	6	4902	3.1	-4	.	.
COc1ccc(OCCOCCN2CCOCC2)cc1	0	0	6005	-0.3	-7	-5	-3
Nc1nonc1C(=O)NCCN=Cc1ccccc1O	-7	-6	3188	-7.6	-7	4	4
COc1ccnc2c1c(=O)n(Cc1cccc(F)c1)c(=O)n2C	1	4	5829	-1.7	-10	2	5
c1cncc(-c2nnc3n2C2(CCCCC2)Cc2ccccc2-3)c1	-13	2	10396	11	-8	15	6
CN(CC(=O)Nc1ccc(Cl)c(C(F)(F)F)c1)C(=O)C1(c2ccccc2)CC1	-10	-7	?	-0.8	-11	-6	-2
COc1ccc(C(C)=O)cc1COC(=O)C1CC(=O)N(Cc2ccccc2)C1 (centres undefined)	6	5	4953	4.7	-11	2	-4
CCN(CC)S(=O)(=O)c1cc(NC(=O)COC(=O)CCc2nc3ccccc3s2)ccc1C	-3	-7	22825*	-0.2	-5	1	4

Not a hit list, and some 4% of all compounds hit somewhere here.
